Source: PubChem BioAssay (National Center for Advancing Translational Sciences (NCATS))
VACV mCherry inh: qHTS for Stage-Specific Inhibitors of Vaccinia Orthopoxvirus: mCherry Reporter Primary qHTS; Vaccinia virus mCherry reporter infection, fluorescence; about a quarter of the inactives have no number; Potency, µM (titrated, usually from 36.5 µM), for inactives: top-dose activity change, negative = inhibition, actives largely listed as inhibitors; 310,000 tested, 0.63% active; AID 720579, 2013; active = well fitted inhibition curve with a large enough effect; inconclusive = small, poorly fitted or top-dose-only effect; inactive = no such curve, though single readings can be large or run the other way; tested in A549 cells; further: nearly all actives have a fitted effect of over 35% in size; inactives centre near -10
Vaccinia Venus: qHTS for Stage-Specific Inhibitors of Vaccinia Orthopoxvirus: Venus Reporter Primary qHTS. Vaccinia virus Venus reporter expression, fluorescence. Potency, µM (series often up to 36.5 µM), inactives show top-dose activity change, negative = inhibition, hits mostly inhibitors. 330,000 tested, 0.46% active. AID 720580, 2013; active means well fitted inhibition curve with a large enough effect; inconclusive means small, poorly fitted or top-dose-only effect; inactive means no such curve, though single readings can be large or run the other way; tested in A549 cells; further: nearly all actives have a fitted effect of over 30% in size; inactives centre near -10
The depositor's hits bear a star; i = inactive; u = inconclusive; x = no result given; [ ] = another dose, or the depositor's remark. On the % scale 0 is the no-effect control and ±100 the full control effect; potency means the concentration at half of the fitted maximal effect.

Structure	VACV mCherry inh	Vaccinia Venus
CN1C(=O)SC(Nc2ccc(F)cc2)C1=O (stereo unspecified)	-11%	u
O=C(Nc1ccccc1Oc1cccnc1)C1CCCN(C/C=C/c2ccc(F)cc2)C1 (stereo unspecified)	-14%	-28%
Cc1cc(C(=O)CCl)c(C)n1-c1cccc(S(=O)(=O)N2CCOCC2)c1	5%	8%
O=C(c1ccc2c(c1)OCO2)C1CCCN(Cc2cccn2-c2cccnc2)C1 (stereo unspecified)	-14%	-15%
COc1ccc(CC(=O)Nc2ccc(-c3nc4ccccc4s3)c(C)c2)cc1	-23%	-15%
C=CCn1cc([N+](=O)[O-])nc1C	-3%	-4%
CCCCn1c(N)c(N(CCC(C)C)C(=O)CSc2nnc3ccccn23)c(=O)[nH]c1=O	-11%[1.46 µM]	0%
COc1cc(C2Nc3cc(Cl)c(S(N)(=O)=O)cc3S(=O)(=O)N2)ccc1OCc1ccccc1 (stereo unspecified)	-12%	-14%
CCOc1ccc(N2C(=O)/C(=C/c3ccc(C)o3)N(C)C2=S)cc1	u	-10%
CC(NC(=O)Nc1ccc(O)cc1)(C(F)(F)F)C(F)(F)F	x	13%
COc1cc2c(cc1OC)C(c1ccc(F)cc1)N(c1cccc(C#N)c1)C(=O)C2 (stereo unspecified)	-10%	-8%
COc1cccc(CNC(=O)CN(c2ccc(C(C)C)cc2)S(=O)(=O)c2c(C)n[nH]c2C)c1	i	-14%
O=C(N1CCOCC1)N1CCN(CC(O)COc2ccc3ccccc3c2)CC1 (stereo unspecified)	x	-8%
CC(C)CCN1CCN(Cc2nc(-c3ccc(F)cc3)cs2)CC1CCO (stereo unspecified)	-10%	-4%
CCOc1ccc(-n2ccc(=O)c(C(=O)Nc3ccc(S(=O)(=O)N4CCOCC4)cc3)n2)cc1	i	-3%
Cc1nnc(SCC(=O)NNC(=O)c2ccc(Cl)cc2)n1CC1CCCO1 (stereo unspecified)	-9%	5%
CCOc1ccc(Cn2c3ccc(OC)cc3c3nc4ccccc4nc32)cc1OC	-7%	-4%
CN(C)CCN1C(=O)C(=O)/C(=C(/O)c2ccc(S(=O)(=O)N3CCOCC3)cc2)C1c1ccccc1 (stereo unspecified)	-4%	0%
COc1ccc(CCNC(=O)C(=O)Nc2ccccc2F)cc1	-4%	0%
Cc1ccc(Cn2c3ccccc3c3cnn(CC(=O)N4CCCCCC4)c(=O)c32)cc1	-11%	-10%
Cc1cc(C)cc(NC(=O)CN2C(=O)CSc3ccc(S(=O)(=O)N(C)C)cc32)c1	-6%	-7%
COc1ccc2c(/C=C/c3cc[n+](C)cc3)c[nH]c2c1	u	13%
COc1cccc2cc(C(=O)C3=C(O)C(=O)N(CCN(C)C)C3c3ccc(Cl)cc3)oc12 (stereo unspecified)	-1%	0%
Cc1cc(C)nc(NC2=NCC(=O)N2c2ccc(Cl)cc2)n1	x	-4%
NNC(=O)COc1cccc(Oc2ccccc2)c1	-10%	-5%

Ordered by heavy-atom count (descending): some entries from above.
Structure	VACV mCherry inh	Vaccinia Venus
COc1cc(C2Nc3cc(Cl)c(S(N)(=O)=O)cc3S(=O)(=O)N2)ccc1OCc1ccccc1 (stereo unspecified)	-12%	-14%
COc1cc2c(cc1OC)C(c1ccc(F)cc1)N(c1cccc(C#N)c1)C(=O)C2 (stereo unspecified)	-10%	-8%
CC(C)CCN1CCN(Cc2nc(-c3ccc(F)cc3)cs2)CC1CCO (stereo unspecified)	-10%	-4%
Cc1cc(C(=O)CCl)c(C)n1-c1cccc(S(=O)(=O)N2CCOCC2)c1	5%	8%
COc1ccc(CCNC(=O)C(=O)Nc2ccccc2F)cc1	-4%	0%
COc1ccc2c(/C=C/c3cc[n+](C)cc3)c[nH]c2c1	u	13%

The listing continues.
Structure	VACV mCherry inh	Vaccinia Venus
C=C1CCN([C@H](C(=O)NCc2ccccc2)C(C)C)S(=O)(=O)c2ccccc21	-1%	-12%
CCCC(=O)N1CCN(c2ccc(NC(=O)c3cc4ccccc4o3)cc2)CC1	x	-16%
CSc1ccc(C(=S)N2CCN(CCO)CC2)cc1	-9%	-5%
O=C(CC1N=C2c3ccccc3N=C(SCC(=O)Nc3ccc(F)cc3)N2C1=O)NCc1cccs1 (stereo unspecified)	-19%	-6%
CNS(=O)(=O)c1ccc2c(c1)[nH]c(=S)n2C	i	-9%
CCN(CC)S(=O)(=O)c1cccc(NC(=O)CN(C)C2CCCCC2)c1	-5%	-13%
CC(=O)N1N=C(c2cccnc2)CC1c1ccccc1O (stereo unspecified)	7%	0%
Cc1cccc(-n2ncc3c(NC4CCCC4)ncnc32)c1	-1%	-8%
Cc1ccc(C)c(CSc2nc3c([nH]c4ccccc43)c(=O)n2C)c1	u	u
COc1ccc(C(C)(C)C)cc1NC(=O)c1cc(S(=O)(=O)N(C)C)ccc1N1CCCC1	-4%	-12%
C=C(c1cn(C(C)=O)c2ccccc12)c1cn(C(C)=O)c2ccccc12	-16%	-16%
Cc1ccc(NC(=O)CN2C(=O)NC3(CCCc4ccccc43)C2=O)c(C)c1 (stereo unspecified)	-5%	u
OC(COC(c1ccc(F)cc1)c1ccc(F)cc1)CN1CCc2ccccc2C1 (stereo unspecified)	u	u
O=C(COC(=O)C(O)c1ccccc1)c1ccc2c(c1)OCCO2 (stereo unspecified)	x	-4%
CCOc1cc(C(=O)Nc2ccc3c(c2)OCO3)ccc1OC(F)F	-1%	-10%
CCOc1ccccc1N(C)C(=O)Cn1nc(Cc2cccnc2)c2ccccc2c1=O	-15%	1%
CCCNC(=O)COC(=O)C1CCN(S(=O)(=O)c2ccc3c(c2)OCCO3)CC1	-6%	-12%
Cc1ccc(-c2cc(C(F)F)nc(S(C)(=O)=O)n2)cc1	-1%	-4%
O=C(CCCC(=O)OCC(=O)c1ccc(Cl)cc1Cl)Nc1cc(C(F)(F)F)ccc1Cl	x	-22%
N#Cc1c(-c2ccccc2)ccnc1Oc1ccccc1	x	-24%
Cc1cccc(N2CCN(C(=O)c3cn(C4CCCCC4)c(=O)c4c3c3ccccc3n4C)CC2)c1C	-23%	-13%
Cc1cc(NC(=O)COC(=O)C2CC(=O)N(c3cccc(Cl)c3)C2)no1 (stereo unspecified)	-12%	2%
CCOc1ccc(-n2c(=S)sc3c(=O)[nH]c(SCC(=O)N4CCC(C)CC4)nc32)cc1	-15%	-8%
CCOc1cc(S(=O)(=O)Nc2ccc(Cl)cn2)ccc1Cl	-24%	-24%
Cc1ccc(C(=O)NCC(=O)OCC(=O)Nc2cc(S(=O)(=O)N3CCOCC3)ccc2Cl)s1	-19%	-7%

Overlap with the part before: 2 compounds, followed by the next part.
Structure	VACV mCherry inh	Vaccinia Venus
CCOc1cc(S(=O)(=O)Nc2ccc(Cl)cn2)ccc1Cl	-24%	-24%
Cc1ccc(C(=O)NCC(=O)OCC(=O)Nc2cc(S(=O)(=O)N3CCOCC3)ccc2Cl)s1	-19%	-7%
Nc1c(C(=O)Nc2ccc3c(c2)OCCO3)nnn1Cc1cccc(Br)c1	-23%	u
O=C(CN1CCN(c2ncccn2)CC1)N(Cc1ccccc1)c1ccc(F)cc1	-1%	-21%
CCN(CC)c1ccc(NC(=O)c2ccc(=O)[nH]c2)cc1S(=O)(=O)Nc1ccc(OC)cc1	-6%	-22%
N=C1C(c2ccccc2)=C(O)C2CCc3ccccc3N12 (stereo unspecified)	i	-9%
O=C(CCN1CCOCC1)NNC(=O)/C(=C/c1ccccc1)NC(=O)c1ccccc1	-19%	-8%
Cc1ccc(CNC(=O)c2cc(S(=O)(=O)N3CCCCC3)cn2C)cc1	-7%	-19%
Cc1ccc(C(=O)NC(=S)NNS(=O)(=O)c2ccccc2)cc1	-21%	-15%
COc1ccc(-c2c(NC(=O)c3ccco3)oc3ccccc3c2=O)cc1OC	0%	5%
O=C(CSCC(=O)Nc1nc(-c2ccc3c(c2)OCO3)cs1)Nc1nccs1	11%	-13%
Cc1c(NC(=O)COC(=O)/C=C/c2ccc(Cl)cc2)c(=O)n(-c2ccccc2)n1C	-8%	-2%
C[C@H]1CNC(=O)c2c(C(=O)N3CCN(C(=O)OC(C)(C)C)CC3)ncn21	-2%	-23%
O=C(NC1CC(=O)N(c2ccccc2)C1)C1CC1 (stereo unspecified)	i	-1%
CCOC(=O)C1(C)CCN1C(=O)c1cccnc1Oc1ccccc1 (stereo unspecified)	i	2%
CCNCC(=O)N1c2ccccc2CCc2ccc(NC(=O)OC(C)C)cc21	-12%	-23%
C=C(C)Cn1c(=O)c2c(nc3n2CCN3c2ccc(F)cc2)n(C)c1=O	-12%	-7%
O=C1c2ccccc2C(=O)N1c1cccc2cccnc12	i	-14%
CC(C)(C)Nc1nc(NN)nc(NC(C)(C)C)n1	x	-27%
Cc1cccc(C(C)C)c1NC(=O)C(C)OC(=O)Cn1cnc2c1c(=O)n(C)c(=O)n2C (stereo unspecified)	i	-10%
CCCOc1cccc(C(=O)N2CCCCC2CCN2CCCCC2)c1 (stereo unspecified)	-12%	-11%
CC(=O)N1C(=O)C2(C(C#N)=C(N)Oc3c2c(C)nn3-c2ccccc2)c2ccccc21 (stereo unspecified)	x	-15%
CCCS(=O)(=O)N1CC(=O)N(c2ccc(Cl)cc2C)C(C)(C(=O)NC2CCCC2)C1 (stereo unspecified)	-7%	-3%
COc1ccccc1NC(=O)NCCCCc1ccccc1	0%	-4%
O=C1NC[C@H](c2ccccc2)OC(=O)[C@H](Cc2ccc(F)cc2)C/C=C\C[C@H]1CC(=O)N(CCO)Cc1ccccc1	-23%	u
COc1ccccc1-c1c(C)nn2c(C)c(C(C)=O)cnc12	-21%	-16%
Clc1ccccc1CNc1ncnc2c1nc1n2CCCC1	-20%	-23%
Nc1[nH]c(C(=O)c2ccccc2)c(-c2ccccc2Br)c1C(=O)c1ccccc1	-13%	-13%
Cc1nnc(SCC(=O)Nc2nonc2C)s1	-2%	7%
O=C(Nc1nccs1)c1ccc(S(=O)(=O)NCC2CCCCC2)cc1	u	u
CC(C)C1CCC(C(=O)N[C@H](Cc2ccccc2)C(=O)O)CC1 (stereo partly specified)	-9%	-13%
CCc1nnc(NC(=O)c2cccc(S(=O)(=O)N3CCN(c4ccccc4)CC3)c2)s1	-19%	-14%
O=C(c1nc2ccc(Cl)cn2c1CNCCn1ccnc1)N1CCCCCCC1	i	-4%
O=C(Nc1ccccc1N1CCCC1)c1ccco1	-4%	1%
Cc1cccc(-n2c(SCC(N)=O)nnc2-c2ccccn2)c1C	-2%	6%
CC(=O)n1cc([C@H]2C=C(C(=O)N3CCN(Cc4ccc5c(c4)OCO5)CC3)O[C@@H](OCc3ccc(CO)cc3)C2)c2ccccc21	i	u
O=C(CSc1ncn[nH]1)NCCc1ccc(Cl)cc1	-3%	-6%
COC(=O)c1cc(NC(=O)Nc2ccccc2)ccc1Cl	i	-12%
Cc1cc(N2CCN(S(=O)(=O)c3ccc4c(c3)OCCO4)CC2)n2ncnc2n1	-27%	-28%
Cc1cc(C)nc(NC(=O)c2cc(Br)ccc2Cl)n1	0%	-15%
COc1ccccc1C1CN(c2ccccc2)N=C1c1cccs1 (stereo unspecified)	-23%	-5%
CCOc1ccc(-c2n[nH]c(=S)n2/N=C/c2cc3c(cc2[N+](=O)[O-])OCO3)cc1	i	-8%
COc1ccc(C(=O)Oc2ccc(C)cc2)cc1S(=O)(=O)N1CCOCC1	i	-2%
COc1cc(C(=O)NNC(=O)c2ccc3c(c2)OCCO3)cc(OC)c1OC	i	-7%
COc1ccc(OC)c(NC(=O)CN(Cc2ccc(Cl)cc2)S(C)(=O)=O)c1	-2%	1%
C[C@@H]1CN([C@H](C)CO)C(=O)CCCn2nncc2CO[C@@H]1CN(C)S(=O)(=O)c1cccc(F)c1	i	-14%
O=C(CON=C1c2ccccc2-c2ccccc21)NC12CC3CC(CC(C3)C1)C2	-20%	-29%
CCOC(=O)c1c2n(c3ccc(O)cc13)CCCCC2	x	u
COc1ccc(CNc2nc(SC)n[nH]2)cc1OC	x	-16%
Cn1c(O)c(C(c2ccccn2)c2c(O)n(C)c(=S)[nH]c2=O)c(=O)[nH]c1=S	-3%	-5%
COc1ccc(CNC(=O)C2CCN(c3nnc(-n4c(C)ccc4C)s3)CC2)c(OC)c1	-10%	-10%
Cc1ccccc1Nc1ncnc2c1c(-c1ccccc1)cn2-c1ccc(F)cc1	-11%	-5%

New compounds follow
Structure	VACV mCherry inh	Vaccinia Venus
O=C(NC1CCCC1)C(c1ccccc1F)N(C(=O)c1csnn1)C1CC1 (stereo unspecified)	-3%	-2%
O=C(c1cccnc1)N1N=C(C2CC2)CC1(O)C(F)(F)F (stereo unspecified)	i	-22%
CCOC(=O)c1c(O)c2ccccc2oc1=O	i[7.34 µM]	0%[7.34 µM]
COc1ccc2c(c1)C1CC(C)(NC(=O)C1C(=O)c1ccccc1)O2 (stereo unspecified)	-15%	-9%
CC(=O)N1N=C(c2cccnc2)OC1c1ccc(C(C)C)cc1 (stereo unspecified)	i	-20%
O=C(CCNS(=O)(=O)c1c(Cl)cccc1Cl)OCC(=O)c1ccccc1	-14%	-2%

The order is random; overall some 0.82% were active at least once.
